Compound activity from PubChem.
KCNQ2 pot = potentiators of rat KCNQ2 potassium channel; hit rate 0.54% among 310,000; CHO-K1 KCNQ2, FluxOR thallium flux fluorescence; active compounds read high; Potassium voltage-gated channel subfamily KQT member 2 (Rattus norvegicus), O88943; B-score at 10 µM;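 active = fluorescence ratio B-score at least 3 SD of library B-scores, with initial fluorescence B-score within 3 SD, cut at about 5.3 in these data; same plate scores as AID 2156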;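 also: B-score of peak minus minimum over baseline fluorescence ratio after K+ and Tl+ stimulus; positive B-score means potentiation of KCNQ2 with more thallium influx and brighter signal; only the inactives scoring about 0 or higher are listed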
Target sequence (O88943 whole entry, looked up): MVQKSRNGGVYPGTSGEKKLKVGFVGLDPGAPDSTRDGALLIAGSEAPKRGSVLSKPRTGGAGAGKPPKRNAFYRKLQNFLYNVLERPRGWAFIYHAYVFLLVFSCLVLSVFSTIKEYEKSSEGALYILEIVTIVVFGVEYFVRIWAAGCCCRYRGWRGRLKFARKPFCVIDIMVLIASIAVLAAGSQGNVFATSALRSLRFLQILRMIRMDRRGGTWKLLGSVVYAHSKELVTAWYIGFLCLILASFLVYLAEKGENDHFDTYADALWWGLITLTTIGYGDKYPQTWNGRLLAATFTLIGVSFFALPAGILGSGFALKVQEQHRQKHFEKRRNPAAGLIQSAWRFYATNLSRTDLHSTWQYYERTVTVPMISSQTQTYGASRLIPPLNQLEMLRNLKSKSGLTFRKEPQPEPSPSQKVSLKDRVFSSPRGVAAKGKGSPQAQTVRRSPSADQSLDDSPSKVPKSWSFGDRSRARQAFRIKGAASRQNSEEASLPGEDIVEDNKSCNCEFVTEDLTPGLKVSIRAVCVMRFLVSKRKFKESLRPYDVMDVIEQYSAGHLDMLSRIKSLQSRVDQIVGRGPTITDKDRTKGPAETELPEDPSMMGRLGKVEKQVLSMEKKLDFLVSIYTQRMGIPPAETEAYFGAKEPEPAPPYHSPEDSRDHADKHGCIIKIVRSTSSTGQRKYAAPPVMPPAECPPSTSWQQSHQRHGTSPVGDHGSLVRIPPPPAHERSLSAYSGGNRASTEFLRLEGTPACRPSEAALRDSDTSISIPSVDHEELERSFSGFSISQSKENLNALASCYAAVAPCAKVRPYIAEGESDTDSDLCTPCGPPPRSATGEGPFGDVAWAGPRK
KCNQ2 pot baseline = recorded beside KCNQ2 pot, whose call it bears; B-score; compound at 10 µM; measured here: initial fluorescence intensity artifact check;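 brightness before thallium and not channel activity; 0 = typical well and far values either way flag optical interference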
* = called active by the depositor; & = joins results of further samples. A portion of the library; count on the stated rates, not on these rows.

SMILES	KCNQ2 pot	KCNQ2 pot baseline
COc1cnc(-c2ccccn2)nc1Sc1ccc(Cl)cc1	1.1	0.3
Cc1cc(C)nc(/N=C(/NC(=O)c2ccccc2)Nc2ccccc2)n1	1.4	-0.32
CCCCn1c(N)c(N(CC(C)C)C(=O)CN2C(=O)NC3(CC(C)CC(C)(C)C3)C2=O)c(=O)[nH]c1=O (stereo unspecified)	0.08	-2.3
COc1cccc(C(=O)NC(C)CCc2ccccc2)c1 (stereo unspecified)	0.19	-0.37
CN(C)c1ccc2c3c(cccc13)C(=O)N(c1ccccc1)C2=O	1.2	-0.06
CC1CCCCN1C(=O)CSc1ccc(-c2ccc(F)cc2)nn1 (stereo unspecified)	0.06	-3
CN1C(=O)c2ccc(C(=O)NCc3ccco3)cc2C1=O	0.98	0.38
COc1ccc(N2CCN(CCCNS(=O)(=O)c3ccc4c(c3)oc(=O)n4C)CC2)cc1	0.2	1.2
c1cncc(-c2nc3ccccn3c2Nc2ccc3c(c2)OCCO3)c1	1.1	-0.37
O=C(O)CCCNC(=O)C(c1ccccc1)c1ccccc1	1.5&0.04	-1.2&-0.7
O=C(NCc1nnc(SCc2ccc(F)cc2)n1-c1ccc(F)cc1)C12CC3CC(CC(C3)C1)C2	0.34	0.33
CCOCCCNC(=O)C(NC(=O)c1cnccn1)c1ccc(OC)cc1 (stereo unspecified)	0.9	-1.2
CC(=O)Nc1c2c(nn1-c1cccc(Cl)c1)CS(=O)C2 (stereo unspecified)	0.45	-0.09
COc1ccc2ccccc2c1/C=N\NC(=O)c1cccnc1	1.1	-0.09
O=C(O)C1C2C=CC(C2)C1C(=O)NCc1cccs1 (stereo unspecified)	0.62	-2.4

Gathered by group, those above with a carbonyl joined to an NH by a bond outside any ring.
SMILES	KCNQ2 pot	KCNQ2 pot baseline
Cc1cc(C)nc(/N=C(/NC(=O)c2ccccc2)Nc2ccccc2)n1	1.4	-0.32
COc1cccc(C(=O)NC(C)CCc2ccccc2)c1 (stereo unspecified)	0.19	-0.37
CN1C(=O)c2ccc(C(=O)NCc3ccco3)cc2C1=O	0.98	0.38
O=C(O)CCCNC(=O)C(c1ccccc1)c1ccccc1	1.5&0.04	-1.2&-0.7
O=C(NCc1nnc(SCc2ccc(F)cc2)n1-c1ccc(F)cc1)C12CC3CC(CC(C3)C1)C2	0.34	0.33
CCOCCCNC(=O)C(NC(=O)c1cnccn1)c1ccc(OC)cc1 (stereo unspecified)	0.9	-1.2
CC(=O)Nc1c2c(nn1-c1cccc(Cl)c1)CS(=O)C2 (stereo unspecified)	0.45	-0.09
COc1ccc2ccccc2c1/C=N\NC(=O)c1cccnc1	1.1	-0.09
O=C(O)C1C2C=CC(C2)C1C(=O)NCc1cccs1 (stereo unspecified)	0.62	-2.4

Additional compounds
SMILES	KCNQ2 pot	KCNQ2 pot baseline
Cc1ccc(CNC(=O)CCn2nc(-c3ccc(Cl)cc3)ccc2=O)cc1	1.1	-0.07
Cc1coc2c1C(=O)C(=O)c1c-2ccc2c(C)cccc12	0.27	0.03
Cc1cc(C(=O)OCC(=O)Nc2ccccc2[N+](=O)[O-])c2ccccc2n1	1.2	0.95
COC(=O)CCCC1=CC2=CC(=O)C(C)(OC(=O)c3cccs3)C(=O)C2=CN1CCc1c[nH]c2ccccc12 (stereo unspecified)	0.4	-0.03
O=C(NCc1ccccc1F)C1CCCN(C(=O)Nc2ccccc2)C1 (stereo unspecified)	0.31	0.03
CC(C)CN(Cc1c(O)ccc2c(=O)c(-c3ccccc3)coc12)CC(C)C	0.4	1.4
O=C(CCc1nc(-c2ccccc2F)no1)NC1CCN(Cc2ccccc2)CC1	1.3	0.08
O=C(CCc1nc2sc3c(c2c(=O)[nH]1)CCCC3)Nc1cccc(Cl)c1	0.93	0.83
CCOc1ccc(/C=C(/NC(=O)c2ccccc2)C(=O)NCCC(=O)O)cc1	2.2	-1.1
C=C1CCN([C@@H](Cc2ccccc2)C(=O)N2CCOCC2)S(=O)(=O)c2ccccc21	1.1	0
Cc1noc(NS(=O)(=O)c2ccc(NC(=O)c3nn(-c4ccc(F)cc4)ccc3=O)cc2)c1C	0.21	0.02
Cc1ccc2cc(COC(=O)c3cccc([N+](=O)[O-])c3)c(=O)[nH]c2c1	0.41	-0.82
COc1ccc(-n2c(-c3ccc(Br)cc3)c[n+]3c2SC(C)C3)cc1 (stereo unspecified)	0.02	1.2
O=C(NNC(=S)NCC1CCCO1)c1ccc(S(=O)(=O)N2CCOCC2)cc1 (stereo unspecified)	0.06	1
Cc1ccc(NC(=O)Cn2ncn3c(cc4ccccc43)c2=O)cc1F	0.09	-1.4
O=C(COc1ccccc1)NC1CCS(=O)(=O)C1 (stereo unspecified)	0.71	0.11
Cc1ccc(S(=O)(=O)N2CCN(C(=O)CCN3C(=O)c4ccccc4C3=O)CC2)cc1C	0.17	-0.19
Nc1nonc1C(=O)N/N=C/c1cccc([N+](=O)[O-])c1	0.74	1.3
COC(=O)C(C)Oc1ccc(=O)[nH]n1 (stereo unspecified)	0.24	0.97
COc1cccc(CN2CCN(Cc3ccc(C#CC(C)(C)O)s3)CC2CCO)c1 (stereo unspecified)	1.6	-0.48
Fc1ccc(Oc2nccc(-c3ccc(Cl)cc3)n2)cc1	0.14	-0.57
COc1ccccc1N1CCN(C(=O)CCNS(=O)(=O)c2ccc(Br)s2)CC1	0.89	-0.82
CC(=O)NC(Cc1cnc[nH]1)C(=O)O (stereo unspecified)	0.62	0.98
CCn1nc(CC(C)C)cc1C(=O)N1CCCC(Nc2ccc(OC)cc2)C1 (stereo unspecified)	0.65	-1.3
COc1ccc(S(=O)(=O)N(C)c2ccc(C(=O)Nc3ccccc3C(=O)N3CCOCC3)cc2)cc1OC	0.44	-0.06
COc1ccc(-c2[nH]ncc2CN2CCC(OCc3cccnc3)CC2)c(F)c1	1	-0.83
COc1ccc(N(CC(=O)O)S(=O)(=O)c2c(C)n[nH]c2C)cc1	0.38	-0.86
O=C(CSc1ccc(Br)cc1)NCC1CCCO1 (stereo unspecified)	0.09	0.22
CC(=O)N1c2ccc(S(=O)(=O)N3CCCC(C(=O)N4CCC(C)CC4)C3)cc2CC1C (stereo unspecified)	0.54	-1.7
COc1ccc(S(=O)(=O)N(C)CC(=O)NCc2ccco2)cc1OC	0.43	-0.26
CCN(CC)C(=O)C(C)N(C#N)c1nc(C)cc(C)n1 (stereo unspecified)	0.09	-2.4
COCCN(C(=O)Cn1c(C(F)(F)F)nc2ccccc21)c1c(N)n(Cc2ccccc2)c(=O)[nH]c1=O	1.6	0.72
CCCOc1ccc(C2(C(=O)O)CCCC2)cc1	1.5	-0.79
CCOC(=O)c1cc2cc(OCc3ccccc3)ccc2nc1C	0.45	0.82
N#CCC(=O)Nc1ccc(C(=O)OC(C(=O)Nc2cc(C(F)(F)F)ccc2Cl)c2ccccc2)cc1 (stereo unspecified)	0.88	1.9
O=C(CSc1cccc2cccnc12)N/N=C/c1cccc(O)c1	2.1	-1.7
CCOc1ccc(/C=C/C(=O)Nc2ccccc2C(F)(F)F)cc1	1.7	-0.9
COCC(=O)NCc1nc2ccccc2n1Cc1ccccc1F	2.2	-1.1
COc1ccc(CCN2C(=O)CN=C2Nc2ccc(F)cc2)cc1OC	1	-1
COc1ccc(CNC(=S)Nc2cc(C)cc(C)c2)cc1	0.67	-1.1
CCCn1nc2ccccc2c1P(=N)(N1CCOCC1)N1CCOCC1	0.08	0.78
CC(OC(=O)c1ccc2c(=O)n3c(nc2c1)CCCCC3)C(N)=O (stereo unspecified)	0.81	-0.2
Cc1cc(C)nc(-n2ncc3c2CC(c2cccc(Cl)c2)CC3=O)n1 (stereo unspecified)	0.05	4.6
CCCCOc1ccccc1C(=O)N(Cc1ccc(C)o1)C1CCS(=O)(=O)C1 (stereo unspecified)	1.2	0.36
Cc1ccc(S(=O)(=O)NCC(=O)N2CCCC2C(=O)O)cc1 (stereo unspecified)	0.49	-0.67
CCOc1ccc(NC(=O)C(=O)NCc2ccncc2)cc1	0.93	0.53
CC(=O)Nc1cccc(N=NN2CCOCC2)c1	0.35	0.4
O=C(Nc1cccc(F)c1)Nc1ccc2c(c1)C(=O)OC2	0.43	1.2
Cc1ccccc1C(=O)NC1CCN(CC(=O)Nc2ccc(N(C)C)cc2)CC1	0.01	0.41
COc1cccc(-n2c(=S)[nH]c3c(oc4ccccc43)c2=O)c1	0.63	0.81
Cc1ccccc1-c1nc(CS(=O)CC(=O)NCc2ccc3c(c2)OCO3)c(C)o1 (stereo unspecified)	1.7	0.62
O=C(N/N=C/c1cc([N+](=O)[O-])c(N2CCOCC2)cc1N1CCOCC1)c1cccnc1	0.74	0.7
Cn1c(CNC(=O)c2ccco2)nnc1SCC(=O)Nc1cccc(Br)c1	3	-0.71
CN(C)C(=O)CSc1ncccc1-c1nc2ccccc2[nH]1	1.8	-0.5
COc1ccc(C2=NN(C(=O)CN3CCOCC3)C(c3nc4ccccc4[nH]3)C2)cc1 (stereo unspecified)	1.3	-0.28
COc1ccc(/C=C(\NC(=O)c2ccccc2)C(=O)OCC2CCCN3CCCCC23)cc1OC (stereo unspecified)	1	-1.2
COc1ccc(N(Cc2cc3cc(OC)ccc3[nH]c2=O)C(=O)C2CCCO2)cc1 (stereo unspecified)	0.35	-0.01
C=CCOc1ccc(CNc2ccc3[nH]c(=O)[nH]c3c2)cc1OCC	0.33	-0.22
COc1cc(NC(=O)CC2NCCNC2=O)cc(OC)c1 (stereo unspecified)	0.03	0.87
O=C(COC(=O)c1cc([N+](=O)[O-])ccc1N1CCOCC1)Nc1ccc(Cl)cn1	0.01	1.1

(list continues)
SMILES	KCNQ2 pot	KCNQ2 pot baseline
CCc1ccc(NC(=O)c2ccc(S(=O)(=O)NCc3cccnc3)cc2)cc1	0.63	-0.01
Clc1cccc(N=NN2CCOCC2)c1Cl	0.1	-0.99
Cc1ccccc1CSc1nnc2ccc(-c3ccncc3)nn12	2.1	0.6
O[C@@H]1CN(C2CCCCC2)CC[C@H]1N1CCN(CCc2ccccc2)CC1	0.6	-0.77
Cc1ccc(C)c(S(=O)(=O)N2CCN(C(=O)CCNS(=O)(=O)c3ccccc3)CC2)c1	2.2	-0.05
Cc1ccc(/C=C/C(=O)Nc2ccc(S(=O)(=O)Nc3cc(C)nc(C)n3)cc2)cc1	0.02	-1.8
COc1ccc(C(C)=O)cc1COC(=O)c1cnc(Cl)c(Cl)c1	0.8	0.62
CC12CCC(=O)N1C(C(=O)NNC(=O)c1ccc(F)cc1)CS2 (stereo unspecified)	0.48	-1.7
O=C(Nc1ccc(NC(=O)c2ccccc2F)cc1)c1ccccc1F	0.65	-0.31
COc1ccc(CN2CCC(Oc3ccc(C(=O)NCc4ccccn4)cc3)CC2)c(F)c1	0.79	1.2
CC(=O)Nc1cccc(C(=O)N2CCN(S(=O)(=O)c3ccc4ccccc4c3)CC2)c1	1.6	-1.2
O=C(CSc1ccc(Cl)cc1)N1CCCC1	1.6	-0.3
O=C(O)c1cccnc1Sc1ccccc1	0.62	2.2
O=C(O)COc1ccc(/C=N/NC(=O)c2ccc(-c3csc(Nc4ccc(Cl)cc4)n3)cc2)cc1	2.1	1.7
O=C(NNC(=O)C1CCN(c2ncccn2)CC1)c1ccc(F)cc1	0.01	1.4

Given with values under each structure: 4 of the compounds above.
Below each SMILES – KCNQ2 pot, KCNQ2 pot baseline
- O=C(CSc1ccc(Cl)cc1)N1CCCC1
→ 1.6, -0.3
- O=C(O)c1cccnc1Sc1ccccc1
→ 0.62, 2.2
- O=C(O)COc1ccc(/C=N/NC(=O)c2ccc(-c3csc(Nc4ccc(Cl)cc4)n3)cc2)cc1
→ 2.1, 1.7
- O=C(NNC(=O)C1CCN(c2ncccn2)CC1)c1ccc(F)cc1
→ 0.01, 1.4

(listing goes on)
SMILES	KCNQ2 pot	KCNQ2 pot baseline
CC(C)=NNc1nc2c(c(=O)n(C)c(=O)n2C)n1C	0.02	0.31
CCOc1ccc(NCc2ccccc2OCc2cccc(F)c2)cc1	0.02	-1.1
CCOC(=O)c1c(C)nc2sc(C(N)=O)c(N)c2c1-c1ccccc1	0.1	-0.57
CC(=O)N1CCCN(Cc2cn(-c3ccc(C)cc3)nc2-c2cccc(C)c2)CC1	2.3	1.8
COc1ccsc1C(=O)Nc1ccc(F)cc1F	1.2	0.02
COC(=O)c1ccc(NC(=O)N(c2ccccc2)c2ccccc2)cc1	0.16	0.2
O=C(Nc1ccc(S(=O)(=O)Nc2nccs2)cc1)C(F)(F)F	1.2	3.1
S=c1[nH]nc(-c2ccco2)n1-c1ccccc1Cl	2	-0.9
CN1CCN(Cc2nc3c(c(=O)n(C)c(=O)n3C)n2Cc2cccc3ccccc23)CC1	0.04	-0.16
Cc1ccccc1N(CC(=O)NC1CCCCC1)C(=O)CNC(=O)c1cccs1	0.01	0.4
CCSc1nnc(NC(=O)[C@H](C)NC(=O)c2ccccc2Cl)s1	2.3	0.16
CCCNC(=O)C1CC(=O)N(c2ccc(OCc3ccc(F)cc3)cc2)C1 (stereo unspecified)	1.3	-0.78
Cn1c(=O)c2c(nc(SCc3nn[nH]n3)n2Cc2ccccc2F)n(C)c1=O	0.49	0.64
CCOc1ncccc1C(=O)OCCN1C(=O)c2ccccc2C1=O	1.5	0.01
C[C@H](NC(=O)OCc1ccccc1)c1nnc([C@H](C)NC(=O)OCc2ccccc2)o1	0.24	-0.07
Cc1cccc(/C(N)=N/OC(=O)c2cccs2)c1	1.6	1.1
Cc1cc(C)c(OCCCCN(C)C)c(Br)c1	2.5	0.03
CCC1CN(C(=O)N2CCC(C(=O)NCc3ccco3)CC2)c2cc(C)ccc2O1 (stereo unspecified)	0.9	-1.7
CCN(Cc1nc2ccccc2n1C)c1ccccc1	0.01	-1.6
COc1cccc2c(=O)n(CC(=O)Nc3cccc(F)c3)ccc12	1.9	-0.76
CCCCOc1ccc(OC(=O)c2cccnc2)cc1	0.48	1.2
